UCH37 DUB inh = blocks the human deubiquitinase UCH37; Q9Y5K5; purified proteasome/UCH37, Ub-AMC cleavage fluorescence; inhibition, % (no concentration beside the values); 0.33% of 330,000 active; AID 588478;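 active means mean of two replicates above 20%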;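 further: 0% = compound-free wells with enzyme and 100% = wells lacking proteasome; stock transfer was 100 nL into about 20 µL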
Target sequence (Q9Y5K5 whole entry, looked up): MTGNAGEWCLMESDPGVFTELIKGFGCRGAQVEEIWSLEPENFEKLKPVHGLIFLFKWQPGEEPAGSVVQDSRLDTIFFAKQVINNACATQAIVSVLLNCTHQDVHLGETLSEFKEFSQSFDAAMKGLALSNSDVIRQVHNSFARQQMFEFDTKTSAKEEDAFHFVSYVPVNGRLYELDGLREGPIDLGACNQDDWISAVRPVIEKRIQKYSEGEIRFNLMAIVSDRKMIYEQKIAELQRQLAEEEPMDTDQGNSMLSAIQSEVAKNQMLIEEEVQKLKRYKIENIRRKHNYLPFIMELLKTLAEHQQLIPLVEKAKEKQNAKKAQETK
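Reagent: Ub-AMC substrate; assay system: Proteasome-associated human UCH37 deubiquitinase; controls: no-proteasome and no-compound wells; read-out: % inhibition of Ub-AMC cleavage fluorescence; timing: 30 min preincubation with enzyme, 25 min cleavage at room temperature; signal: AMC fluorescence from Ub-AMC cleavage, excitation 355 nm, emission 460 nm; buffer or medium: Tris-HCl pH 7.4 plus ovalbumin, ATP-MgCl2, DTT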
ALR H2O2 inh = blocks human ALR sulfhydryl oxidase activity; P55789; purified ALR, DTT oxidation, H2O2 HRP-luminol luminescence; inhibition, % (no concentration beside the values); 3.8% of 290,000 active; AID 485317;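 active means mean and each replicate at 75% or more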;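 further: stock transfer was 7.5 nL into about 7.5 µL; 0% = neutral wells and 100% = wells with inactivated enzyme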
HNF4A DNA FP = change in binding of human HNF4 alpha to DNA; P41235; HNF4a-FITC DNA binding, fluorescence polarization, 1 h; activity change, % at 10 µM; 0.3% of 360,000 active; in the data active means activity change above about 30%, passing the limit was not always enough;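 further: controls were the assay level and a saturating level of protein; the project sought stronger binding though the title names inhibitors; some compounds called inactive have numbers as strong as hits; positive values seem to mean higher polarization but the record does not say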
Target sequence (P41235 whole entry, looked up): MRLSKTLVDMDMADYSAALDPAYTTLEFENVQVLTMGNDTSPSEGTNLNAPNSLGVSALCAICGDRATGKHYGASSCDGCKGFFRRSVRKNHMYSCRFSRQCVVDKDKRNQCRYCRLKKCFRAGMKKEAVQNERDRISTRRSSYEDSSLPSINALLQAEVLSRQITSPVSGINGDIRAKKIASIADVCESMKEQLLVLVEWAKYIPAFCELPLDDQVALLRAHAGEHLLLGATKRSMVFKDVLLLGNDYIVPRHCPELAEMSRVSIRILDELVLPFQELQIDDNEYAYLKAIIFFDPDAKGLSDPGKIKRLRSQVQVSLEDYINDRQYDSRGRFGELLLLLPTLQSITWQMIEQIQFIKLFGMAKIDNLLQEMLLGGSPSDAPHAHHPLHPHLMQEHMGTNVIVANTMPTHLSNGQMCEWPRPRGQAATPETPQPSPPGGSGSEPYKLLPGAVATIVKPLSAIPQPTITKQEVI
Ecoli growth = inhibitors of Escherichia coli growth. OD600, 23 h; hits give low values. OD600 absorbance (no concentration beside the values). 0.21% of 330,000 active;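 active means OD600 absorbance below the run mean of sample wells minus 3.6 SD, in any replicate, cut at about 0.56 in these data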;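 further: stock transfer was 300 nL into about 60 µL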
B2AR ag = activates human beta-2 adrenergic receptor causing internalization. 0.43% of 340,000 active. AID 504454. Am2.2-beta2AR cells, FAP receptor internalization, flow cytometry; reference of the scale not given here. response, % (no concentration beside the values). P07550;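 active means response above a set limit, near 3 SD of response in nonfluorescent compounds, cut at about 42% in these data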;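 further: stock transfer was 100 nL into about 11 µL; a reference agonist was the positive control; negative values mostly stem from fluorescent compounds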
FGF22 binding = shifts melting point of recombinant human FGF22 | recombinant FGF22 thermal shift, SYPRO orange fluorescence; percent of sucrose octasulfate shift, DMSO zero | calls only at 9.99 µM | 1.5% of 340,000 active;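 active means melting point raised past a set limit in the mean and every replicate; three in four hits are not shown here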
Target sequence (Q9HCT0 whole entry, looked up): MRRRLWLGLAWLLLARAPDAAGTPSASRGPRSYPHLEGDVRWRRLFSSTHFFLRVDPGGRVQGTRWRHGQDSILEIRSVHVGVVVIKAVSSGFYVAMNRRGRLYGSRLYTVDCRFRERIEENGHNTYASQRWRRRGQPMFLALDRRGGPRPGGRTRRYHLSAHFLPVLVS
rRNA inh HTS = inhibits bacterial ribosomal RNA function over humanized ribosomes | E. coli WT GFP vs humanized-ribosome RFP mutants, fluorescence, 24 h; hits give low values; DMSO median 0, no signal -100 | GFP signal change (wild-type ribosome), % (test concentration not listed) | 1.6% of 350,000 active | AID 720706;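 active means significant combined selectivity score with lowered wild-type GFP, culture density cut under 30%, mutant RFP and density less affected; inactive means any of these conditions unmet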; further: one replicate is shown; some compounds called inactive have numbers as strong as hits
rRNA inh HTS OD600 = further read-out of rRNA inh HTS, marked with its call; OD600 change, %; measured here: OD600 growth;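 optical density of the mix in the first replicate; 0 = DMSO median and -100 = no signal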
rRNA inh HTS RFP = second read-out of rRNA inh HTS, no call of its own (marks repeat the call); RFP signal change, %; measured here: RFP humanized mutant strains;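 first replicate; 0 = DMSO median and -100 = no signal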
* = called active by the depositor; i = inactive; x = no result given. The list is partial, so the mix of outcomes need not match the whole.

No.	SMILES	ALR H2O2 inh	B2AR ag	FGF22 binding	rRNA inh HTS	HNF4A DNA FP	rRNA inh HTS OD600	rRNA inh HTS RFP	Ecoli growth	UCH37 DUB inh
1	Cc1ccc(C2OC34CCCCCC3C(C#N)(C(=N)O4)C2(C#N)C#N)cc1 (stereo not drawn)	-9	13	i	-5	-2.1	-6	-4.6	0.63	i
2	Cc1ccc(C)c(C(=O)COC(=O)CCCC(=O)Nc2cc(C(F)(F)F)ccc2Cl)c1	1	17	x	x	-3.8	x	x	0.73	4.2
3	Cc1cccc(OCCCSc2nc3ccccc3[nH]2)c1	-3	-20	x	x	-2.0	x	x	0.67	5.4
4	O=C(c1cccc(S(=O)(=O)N2CCc3ccccc32)c1)N1CCN(c2ccccc2)CC1	x	5	i	-7	-0.6	-2	15	0.68	3.4
5	O=C(Nc1nc(-c2ccccc2)cs1)c1ccc(N2CCOCC2)c([N+](=O)[O-])c1	-2	29	x	x	-1.0	x	x	0.67	4.5
6	Cc1cc(Cl)nc(-c2ccccc2O)n1	2	4	x	9	3.8	12	1.2	0.66	1.4
7	O=C(NCCCN1CCOCC1)c1ccc2c(c1)N(Cc1cccc(Cl)c1)C(=O)c1ccccc1S2=O (stereo not drawn)	-9	3	i	-1	2.2	0	4.1	0.69	0.4
8	Cc1cccc(OCC(=O)NCc2ccc(F)cc2)c1	-13	-2	i	1	0.4	-4	-2.8	0.63	1.2
9	OC(c1ccccc1)(c1nc(-c2ccc3c(c2)OCO3)cs1)C(F)(F)F (stereo not drawn)	x	x	i	-56	2.2	-75	-18	x	x
10	O=C(C(=O)N1CCCc2ccccc21)c1c[nH]c2ccccc12	-1	-12	i	-31	6.5	-36	-9.8	0.71	3.7
11	Cc1ccc(OCCCN2CCOCC2)c([N+](=O)[O-])c1	-3	0	x	x	1.3	x	x	x	x
12	CCCc1c(-c2cccc(F)c2)ncn1CCc1ccccc1OC	x	x	i	-61	0.7	-79	-19	x	x
13	O=C(NNC(=S)NC1CCCCC1)c1ccccc1O	97*	-2	i	5	-1.6	12	-2.3	0.71	-5.8
14	CCOC(=O)C1=C(O)c2ccccc2C(=O)/C1=C\c1ccc(CC)cc1	-94	-213	x	x	-0.6	x	x	0.6	-18
15	COc1ccc2[nH]c(=O)c(-c3noc(-c4ccc(F)cc4)n3)cc2c1	-6	30	x	x	205	x	x	0.74	-11
16	Cc1noc(NS(=O)(=O)c2ccc(NC(=O)COc3ccccc3)cc2)c1C	45	0	x	x	1.1	x	x	0.67	6.6
17	CCOC(=O)c1c(NC(=O)CSc2nc3ccc(C)cc3[nH]2)sc2c1CC(C)(C)NC2(C)C	-3	37	i	6	-0.2	-4	11	0.62	3.9
18	CCOC(=O)C(NC(C)=O)C(=O)Nc1c(C)cccc1C (stereo not drawn)	-3	-2	i	14	5.1	4	0.4	0.7	5.3
19	CC(=O)c1ccc(OCC(=O)NCCC2=CCCCC2)cc1	x	6	i	-10	1.1	-12	0.6	0.61	1.1
20	COc1ccc(C(=O)CSc2nnc(CNC(=O)c3ccccc3F)n2C)cc1OC	x	0	i	6	-1.7	0	0.1	0.61	2.0

Part of the list above in order of length of the SMILES, low to high:
No.	SMILES	ALR H2O2 inh	B2AR ag	FGF22 binding	rRNA inh HTS	HNF4A DNA FP	rRNA inh HTS OD600	rRNA inh HTS RFP	Ecoli growth	UCH37 DUB inh
12	CCCc1c(-c2cccc(F)c2)ncn1CCc1ccccc1OC	x	x	i	-61	0.7	-79	-19	x	x
9	OC(c1ccccc1)(c1nc(-c2ccc3c(c2)OCO3)cs1)C(F)(F)F (stereo not drawn)	x	x	i	-56	2.2	-75	-18	x	x
1	Cc1ccc(C2OC34CCCCCC3C(C#N)(C(=N)O4)C2(C#N)C#N)cc1 (stereo not drawn)	-9	13	i	-5	-2.1	-6	-4.6	0.63	i

Remaining list, next part:
No.	SMILES	ALR H2O2 inh	B2AR ag	FGF22 binding	rRNA inh HTS	HNF4A DNA FP	rRNA inh HTS OD600	rRNA inh HTS RFP	Ecoli growth	UCH37 DUB inh
21	CC(=O)c1ccc(OCC(O)CN2CCCC(C)C2)cc1 (stereo not drawn)	-1	7	i	9	4.4	-5	0.4	0.72	1.5
22	CCOc1ccc(CCNC(=O)c2c(C)nn(-c3ccccc3)c2Cl)cc1OCC	1	6	i	7	2.5	3	-0.4	0.69	4.3
23	COc1cccc(-n2c(=O)c3ccccc3n(CC(=O)NCC3CCCO3)c2=O)c1 (stereo not drawn)	0	1	i	4	-1.1	7	-4.1	0.72	1.4
24	CCOC(=O)C1CCCN(C(=O)CC(C)c2ccccc2)C1 (stereo not drawn)	-17	9	i	1	0.6	-8	1.0	0.65	4.7
25	CCC(=O)N1CCCC1(C)C(=O)NCc1ccc(SC)cc1 (stereo not drawn)	x	x	i	6	-0.1	11	-1.3	x	x
26	CCCc1c(C)nc(N2CCN(c3ccccc3F)CC2)[nH]c1=O	-5	6	i	10	2.5	11	0.7	0.71	0.5
27	O=C(c1ccccc1)N1CCN(C(=O)c2nn3c(C(F)(F)F)cc(-c4ccco4)nc3c2Cl)CC1	-5	-7	i	1	4.0	10	0.0	0.67	6.6
28	O=C(CN1CCN(Cc2ccccc2F)CC1)Nc1ccccc1Cl	27	-7	i	-5	-0.3	-5	2.2	0.66	1.1
29	NS(=O)(=O)c1ccc(CCNC(=O)C2CCCN2C(=O)OCc2ccccc2)cc1 (stereo not drawn)	-12	0	x	x	1.6	x	x	0.72	0.5
30	CC(C)OCCCNC(=O)Cn1ccc2cc(S(=O)(=O)N3CCCCC3)ccc21	-4	-1	i	9	2.3	3	-0.1	0.68	1.4
31	CC1CCCC(NC(=O)CN(C)CC(=O)Nc2cccc(F)c2)C1C (stereo not drawn)	-5	-2	i	x	0.1	x	x	0.73	3.3
32	Cc1nn(-c2ccccc2)c(-c2ccccc2)c1C(=O)O	-2	-2	x	x	-1.2	x	x	0.76	1.2
33	COC(=O)c1ccc(S(=O)(=O)N2CCCN(Cc3ccccc3)CC2)n1C	3	-1	i	-5	2.7	0	4.6	0.71	0.9
34	Nc1nc(-c2ccc(Cl)cc2Cl)cn1N	7	-16	x	x	1.4	x	x	0.66	-12
35	O=C(Nc1cccc(Cl)c1)N(CCN1CCOCC1)Cc1cccc(Cl)c1	-20	1	i	-50	-1.2	-76	-20	0.61	2.4
36	O=C(C1CCN(S(=O)(=O)c2cccc3nsnc23)CC1)N1CCCCC1	2	-1	i	13	2.4	11	-1.7	0.67	5.9
37	C/C(=N/NC(=O)CC1N=C(Cc2ccccc2)NNC1=O)c1cccnc1 (stereo not drawn)	0	-19	i	13	-0.1	5	-5.5	x	x
38	O=C(Oc1ccccc1)c1cccnc1Oc1ccccc1	-1	-4	i	-11	-0.7	3	-0.2	0.63	2.7
39	O=C(c1c(F)cccc1F)N1CCN(c2cccc(C(F)(F)F)c2)CC1	-8	7	x	x	1.9	x	x	0.72	-1.5
40	Cc1cccc(N2C(=O)C3C4CC(C(Br)C4Br)C3C2=O)n1 (stereo not drawn)	0	0	x	x	3.6	x	x	0.69	-0.5
41	c1ccc(CSc2n[nH]c(-c3ccco3)n2)cc1	70	-7	x	x	-0.4	x	x	0.69	2.2
42	COc1ccc(-c2cc(C(=O)NCC3CCCO3)c3cc(C)ccc3n2)cc1 (stereo not drawn)	-12	8	i	5	-3.4	9	-9.4	0.66	-417
43	CCOc1ccc(C(=O)Nc2c(C(N)=O)oc3ccccc23)cc1	2	-15	x	x	-2.6	x	x	0.64	1.4
44	CCOC(=O)c1cc2c(ccn2C)n1CC(=O)N1CCC(C)CC1	-123	-2	x	x	-0.3	x	x	0.74	1.1
45	Cc1ccc(C(=O)N2CCN(S(=O)(=O)c3ccccc3)CC2)cc1	-8	3	i	1	-2.9	-4	-2.1	0.67	-1.6
46	O=S(=O)(NCc1ccc(Cl)cc1)c1ccc(Cl)nc1	2	-1	x	x	-2.6	x	x	0.69	0.2
47	CC(=O)N1CCc2ccccc2C1CC(=O)O (stereo not drawn)	-12	4	i	18	-2.7	20	5.6	0.73	2.5
48	CCOc1cc(C(=O)NC(C)Cc2cccs2)cc(OCC)c1OCC (stereo not drawn)	5	-5	i	4	0.2	0	-0.3	0.67	1.1
49	COc1ccccc1NC(=O)CSc1nn2c(=O)c(C)nnc2s1	99*	-8	i	2	-2.0	2	-2.8	0.68	8.3
50	CCOCCCn1c(SCC(=O)Nc2ccc(OC)cc2)nc2ccccc2c1=O	-20	-8	i	3	-1.5	3	1.5	0.68	-0.3
51	Cc1onc(-c2ccccc2Cl)c1C(=O)N1CCN(c2ccccc2)CC1	30	-18	x	6	1.1	11	-0.2	0.65	1.8
52	CN(C)S(=O)(=O)c1ccc(C(=O)OCC2CC2(Cl)Cl)cc1 (stereo not drawn)	7	-1	i	2	-0.8	3	-0.3	0.67	0.6
53	Cc1cc(C(=O)NC(C)C2CCCO2)c(C)o1 (stereo not drawn)	2	-8	i	11	-1.3	8	3.2	0.68	0.6
54	O=c1c2ccccc2nc(-c2ccco2)n1/N=C/c1ccccc1O	-3	1	x	x	-0.8	x	x	x	x
55	CCCN(CCC)S(=O)(=O)c1ccc(NS(C)(=O)=O)cc1	x	3	x	x	1.6	x	x	0.66	5.2
56	Cc1nnc(N/N=C/c2c(Cl)cccc2Cl)n1N	-16	7	x	-6	1.0	2	-3.6	x	x
57	c1ccc(CC2CCN(c3ncnc4sccc34)CC2)cc1	x	-8	i	-20	6.1	-24	21	0.69	2.0
58	CSc1nc2ccc(NC(=O)c3ccc(=O)n(C)n3)cc2s1	-34	-12	i	6	1.4	3	-0.6	0.67	4.1
59	COC(=O)[C@]1(C)N[C@H](c2ccc(-c3ccc(F)cc3)cc2)[C@@H]2C(=O)N(C)C(=O)[C@@H]21	0	-4	i	8	1.3	20	2.0	x	2.2
60	O=C(Cc1cccs1)N1CCN(c2cccc(Cl)c2)CC1	13	2	i	-33	-0.9	-40	-5.2	0.69	2.2
61	COCc1cccc(-c2csc(C(NC(C)=O)c3ccccc3)n2)c1 (stereo not drawn)	x	x	i	12	-4.0	9	1.4	x	x
62	Cc1ccc(NC(=O)CSc2nc(N)c3cc4c(nc3n2)CCCC4)cc1	x	-12	x	1	1.8	15	-1.4	x	x
63	Cc1ccc2c(CSc3nnc(N)s3)cc(=O)oc2c1	-9	2	x	x	-1.8	x	x	0.67	3.4
